Vif A3G: HIV-1 Vif–A3G interaction blockers – biochemical, TR-FRET, GST-Vif 1-94, biotin-A3G peptide, dose response retest, primary screen (AID 1117319); TR-FRET GST-Vif / biotin-A3G peptide binding; higher % means a stronger effect; test concentration not given here; strong numbers were not always called active; one-dose inhibition, %; IC50 in µM for titrated hits; 260,000 tested, 0.57% active;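 active = above the screen mean plus three standard deviations and confirmed in dose response; inconclusive = results disagree or hit not tested in dose response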;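 also: Vif residues 1-94 fused to GST binding biotinylated APOBEC3G peptide 110-148; 0% = full assay without inhibitor and 100% = GST in place of GST-Vif; retest series ran down from 100 µM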
UCH37 DUB inh: blocks the human deubiquitinase UCH37 | Q9Y5K5 | purified proteasome/UCH37, Ub-AMC cleavage fluorescence | inhibition, % (test concentration not listed) | 330,000 tested, 0.33% active | AID 588478;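 active = mean of two replicates above 20%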;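 also: 0% = compound-free wells with enzyme and 100% = wells lacking proteasome; stock transfer was 100 nL into about 20 µL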
Target sequence (Q9Y5K5 whole entry, looked up): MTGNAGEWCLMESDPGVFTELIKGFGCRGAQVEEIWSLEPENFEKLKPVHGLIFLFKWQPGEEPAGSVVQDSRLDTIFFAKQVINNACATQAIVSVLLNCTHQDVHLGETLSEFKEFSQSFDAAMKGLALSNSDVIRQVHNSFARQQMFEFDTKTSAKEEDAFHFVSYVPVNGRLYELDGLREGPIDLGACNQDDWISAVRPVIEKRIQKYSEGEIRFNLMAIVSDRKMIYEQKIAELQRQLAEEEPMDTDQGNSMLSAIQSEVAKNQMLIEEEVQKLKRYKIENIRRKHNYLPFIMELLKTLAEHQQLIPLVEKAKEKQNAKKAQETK
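Material: Human UCH37 enzyme supplied as purified proteasome complex | Schedule: 30 min preincubation with enzyme, 25 min cleavage at room temperature | Detection: AMC fluorescence 355/460 nm | Measure: % inhibition of Ub-AMC cleavage fluorescence | Controls: Wells without proteasome as full block, compound-free enzyme plus substrate as uninhibited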
HNF4A DNA FP: change in binding of human HNF4 alpha to DNA | 360,000 tested, 0.3% active | P41235 | HNF4a-FITC DNA binding, fluorescence polarization, 1 h | AID 1224865 | activity change, % at 10 µM; in the data active = activity change above about 30%, passing the limit was not always enough;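 also: controls were the assay level and a saturating level of protein; the project sought stronger binding though the title names inhibitors; some compounds called inactive have numbers as strong as hits; positive values seem to mean higher polarization but the record does not say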
Target sequence (P41235 whole entry, looked up): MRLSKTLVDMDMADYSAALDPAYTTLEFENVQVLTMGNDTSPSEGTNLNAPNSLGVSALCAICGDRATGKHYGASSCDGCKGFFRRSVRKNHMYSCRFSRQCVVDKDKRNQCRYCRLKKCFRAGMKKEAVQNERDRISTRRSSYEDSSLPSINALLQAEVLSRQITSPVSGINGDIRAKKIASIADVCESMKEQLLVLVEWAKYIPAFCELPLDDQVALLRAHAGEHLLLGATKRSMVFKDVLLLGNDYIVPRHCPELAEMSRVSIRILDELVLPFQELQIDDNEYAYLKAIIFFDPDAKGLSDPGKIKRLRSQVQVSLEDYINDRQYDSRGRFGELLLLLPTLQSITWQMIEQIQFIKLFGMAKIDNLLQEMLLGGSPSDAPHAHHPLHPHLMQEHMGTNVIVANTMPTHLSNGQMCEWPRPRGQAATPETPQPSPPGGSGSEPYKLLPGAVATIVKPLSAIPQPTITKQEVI
E coli growth: E. coli growth inhibition | Escherichia coli growth, OD600, 23 h; active compounds read low | OD600 absorbance (no concentration beside the values) | 330,000 tested, 0.21% active | AID 1053175;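 active = OD600 absorbance below the run mean of sample wells minus 3.6 SD, in any replicate, cut at about 0.56 in these data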;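 also: stock transfer was 300 nL into about 60 µL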
RanGTP-Imp inh: inhibitors of RanGTP-importin-beta interaction, primary screen, biochemical, FRET, CFP-Ran, YFP-importin-beta, homogeneous; AID 2216; inhibition, % (no concentration beside the values); cell-free CFP-Ran/YFP-importin-beta FRET ratio; 300,000 tested, 1.1% active;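 active = most replicates above 15%; inconclusive = exactly half above 15%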;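 also: 0% = DMSO wells and 100% = Ran loaded with GDP instead of GTP; wells of about 40 µL received 100 nL stock; the first replicate is given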
MLL AF4-AF9 inh: MLL-AF4/AF9 protein interaction inhibition | P42568 | AlphaScreen, biotin-AF4 peptide binding to FLAG-AF9 | inhibition, % at 10 µM | 350,000 tested, 0.47% active | AID 651704;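 active = every replicate reaching a set inhibition limit, whatever the replicate mean, cut at about 25% in these data; inconclusive = mean inhibition reaches that limit but some replicates miss it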;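 also: 0% = plate neutral control median and 100% = total signal loss; the record names both 10 and 1 µM as test concentration; the first replicate is given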
FGF22 binding: binders of recombinant human FGF22 by thermal shift | Q9HCT0 | calls only at 9.99 µM | 340,000 tested, 1.5% active | SYPRO orange fluorescence; percent of sucrose octasulfate shift, DMSO zero;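 active = melting point raised past a set limit in the mean and every replicate; inconclusive = no clear call; three in four hits are not shown here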
Target sequence (Q9HCT0 whole entry, looked up): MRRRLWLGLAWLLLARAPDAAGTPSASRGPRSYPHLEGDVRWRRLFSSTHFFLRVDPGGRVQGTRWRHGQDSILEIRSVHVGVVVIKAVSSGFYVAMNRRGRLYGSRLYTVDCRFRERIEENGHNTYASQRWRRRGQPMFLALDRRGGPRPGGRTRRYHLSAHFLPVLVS
* marks the source's active call; other numbers are inactive results; i = inactive; ? = inconclusive; · = not tested or not shown. These rows are one share of the data; rates above refer to the full screens.

SMILES	Vif A3G	UCH37 DUB inh	HNF4A DNA FP	E coli growth	RanGTP-Imp inh	MLL AF4-AF9 inh	FGF22 binding
CSCCC(NC(=O)c1ccc(Cl)cc1Cl)C(=O)N(C)Cc1nc2ccccc2c(=O)[nH]1 (stereo unspecified)	-7%	1.0	-2.6	0.64	·	0.7	i
Cc1onc(-c2ccccc2)c1C(N)=O	-3%	1.6	0.5	0.72	-0.6	·	·
CCNC(=S)N(CCc1c(C)[nH]c2ccccc12)Cc1cc(OC)c(OC)c(OC)c1	24%	5.5	1.7	0.72	7.9	4.1	i
CCN=C(NCC)SC1CC(=O)N(c2ccccc2)C1=O (stereo unspecified)	0%	0.2	-0.1	0.63	4.3	·	·
C=CCSc1nnc(NC(=O)CSc2nc3ccccc3o2)s1	?	-1.7	0.9	0.75	-3.2	·	·
C/C(=N\NC(=O)c1nnn(-c2nonc2N)c1-c1ccc2c(c1)OCO2)c1ccccc1	·	·	-1.2	·	4.1	0.1	i
Cc1ccc(Nc2nc(N)nc(CN3CCN(Cc4ccc5c(c4)OCO5)CC3)n2)cc1C	3%	1.4	1.4	0.64	-3.3	13	i
CCC(CO)Oc1cc(NCc2cc(C)cc(C)c2)c2ncn(C(C)C)c2c1 (stereo unspecified)	·	3.5	1.2	0.69	·	-18	i
Cn1c(=O)c(=O)n(C)c2cc(S(=O)(=O)N3CCN(c4ccc(F)cc4)CC3)ccc21	?	2.6	-0.2	0.67	0.2	·	·
CCN(CC(=O)Nc1cccc(OC)c1)C(=O)c1ccco1	-6%	2.3	3.9	0.66	-0.9	-2.6	i
CNS(=O)(=O)c1cccc(C(=O)OCC(=O)Nc2ccccc2OC(F)F)c1	5%	0.5	-2.1	0.7	-0.9	·	·
COc1ccccc1-c1n[nH]c(=S)n1N	5%	0.9	-1.3	0.72	-0.7	-0.2	i

Molecules from the list above that have fluorine, in the order listed:
SMILES	Vif A3G	UCH37 DUB inh	HNF4A DNA FP	E coli growth	RanGTP-Imp inh	MLL AF4-AF9 inh	FGF22 binding
Cn1c(=O)c(=O)n(C)c2cc(S(=O)(=O)N3CCN(c4ccc(F)cc4)CC3)ccc21	?	2.6	-0.2	0.67	0.2	·	·
CNS(=O)(=O)c1cccc(C(=O)OCC(=O)Nc2ccccc2OC(F)F)c1	5%	0.5	-2.1	0.7	-0.9	·	·

Continuation:
SMILES	Vif A3G	UCH37 DUB inh	HNF4A DNA FP	E coli growth	RanGTP-Imp inh	MLL AF4-AF9 inh	FGF22 binding
O=c1nccc(N/N=C/c2cccc(O)c2)[nH]1	-1%	·	0.2	·	2.3	9.9	i
COCCN(C(=O)CSc1nnc(C)n1-c1ccc(C)cc1)c1c(N)n(Cc2ccccc2)c(=O)[nH]c1=O	-2%	4.0	2.7	0.7	·	-0.7	i
O=C(CN1CCN(CC(=O)Nc2ccc(F)cc2)CC1)NCC1(N2CCOCC2)CCCCC1	7%	5.1	3.1	0.71	·	1.1	i
CCN(CC)C(=O)Oc1ccc2ccccc2c1Cl	8%	4.9	-3.0	0.64	-3.9	4.0	i
CC(=O)Nc1ccc2c(c1)nc(CCN1CCN(c3ccccn3)CC1)n2C	-1%	-0.5	3.4	0.64	-3.8	0.7	i
COc1cc(NC(=O)c2cc(Cl)nnc2Cl)cc(OC)c1OC	·	0.9	-0.7	0.7	2.2	-6.7	i
CC(=O)Nc1ccc(OC(=O)c2cc3ccccc3oc2=O)cc1	3%	-0.2	-0.6	0.71	2.8	·	·
Nc1nnc(SCC(=O)Nc2cccc(Cl)c2)s1	-12%	3.1	1.7	0.68	·	-1.6	·
CCN(CC)C(=O)CSc1nc2cc3c(cc2c(=O)n1CCCCCC(=O)NCc1ccc(OC)cc1)OCO3	26%	-0.7	0.7	0.68	-0.4	-2.0	i
COc1cc(OC)cc(-c2cc(N)n(S(=O)(=O)Cc3ccccc3)n2)c1	1%	7.0	3.3	0.71	-1.3	1.7	i
CC1C(=O)N2CCCc3cc(NS(=O)(=O)c4ccc([N+](=O)[O-])cc4)cc1c32 (stereo unspecified)	1%	2.6	-2.6	0.6	0.4	7.7	i
COc1ccccc1N1CCN(C(=O)COc2cc(C)cc(C)c2)CC1	3%	1.2	4.5	0.65	0.0	1.6	i
O=C(CSc1nnc(-c2ccco2)n1-c1ccccc1)N1CCOCC1	-3%	1.1	1.6	0.74	2.7	·	·
CCN(CC)c1nc(N2CCOCC2)c(C#N)c2c1CN(C)CC2	1%	2.6	1.7	0.68	1.1	·	·
CC(Sc1ccc2c(c1)OCCO2)C(=O)Nc1ccc(N2CCOCC2)cc1 (stereo unspecified)	·	2.3	3.3	0.65	-0.4	-8.9	i
O=C1CC(c2ccco2)=Nc2ccccc2N1	-9%	7.1	0.4	0.67	-6.4	·	·
COc1ccc(CN2CCN(C(=O)c3ccco3)CC2)cc1OCc1ccccc1	1%	1.0	-1.7	0.69	3.0	·	·
CC1(C)CC2CC(C)(CN2CC(O)COc2ccccc2)C1 (stereo unspecified)	-5%	0.2	1.3	0.65	-1.5	0.1	·
COC(=O)c1ccc(NC(=O)CSc2nnc(CNc3ccc(OC)cc3)n2C)cc1	10%	1.9	-1.7	0.68	1.0	·	·
CCOC(=O)C1=C(C)NC(=S)N(C(C)=O)C1c1ccccc1 (stereo unspecified)	18%	2.1	-0.9	0.67	1.3	4.6	i
CCOc1ccc(C(=O)N(C)C2CCS(=O)(=O)C2)cc1 (stereo unspecified)	1%	0.7	2.6	0.7	0.2	·	·
COc1cccc(CN2CC(C(=O)N3CCCCCC3)CCC2=O)c1 (stereo unspecified)	-2%	-0.8	3.5	0.7	3.8	-1.6	i
CC1(C(=O)OCC(=O)NC(=O)c2ccccc2)CC1(Cl)Cl (stereo unspecified)	-5%	3.2	-2.9	0.64	1.4	-13	i
O=C(O)CC[C@@H](C(=O)O)N1C(=O)c2ccccc2C1=O	?	-0.5	-1.6	·	1.3	-1.9	i
C=CCSc1nc(=O)n2ccccc2n1	14%	4.9	0.3	0.69	3.3	-3.6	i
CN1CCN(c2ccc(S(=O)(=O)N3CCOCC3)cc2)CC1	·	-0.6	2.4	0.62	·	-6.3	i
COCc1nnc(NC(=O)c2cccc(NC(=O)c3ccccc3)c2)s1	·	7.1	-1.6	0.69	-0.5	-0.8	i
NS(=O)(=O)c1ccc(Nc2nc(-c3ccc(O)cc3O)cs2)cc1	17%	3.0	-1.4	0.63	9.0	·	·
CCOC(=O)N1CCN(C(=O)CN(c2cc(Cl)ccc2OC)S(=O)(=O)c2ccccc2)CC1	0%	2.3	-0.2	0.71	-0.6	·	·
O=C(CCC(=O)c1cccs1)NCc1ccc(F)cc1	1%	0.5	-3.1	0.67	2.3	·	·
O=C(COc1coc(CN2CCc3ccccc3C2)cc1=O)Nc1ccc(Cl)cc1	3%	1.4	-3.2	0.71	-3.9	-0.2	i
COC(=O)c1cc(C)nc(Nc2nc(C(N)Cc3ccc(Cl)cc3)cs2)n1 (stereo unspecified)	·	·	0.4	·	·	14	i
CCN(C(=O)CSc1nc2ccc(Cl)cc2[nH]1)C1CCS(=O)(=O)C1 (stereo unspecified)	15%	1.3	3.6	0.71	·	-6.4	i
O=C(NC1CCCCC1)C1CCN(c2ncccn2)CC1	·	-5.1	1.2	0.71	-0.6	-7.2	i
NC(=O)C1CCN(C(=O)c2ccc([N+](=O)[O-])cc2NC(=O)c2cccs2)CC1	·	1.7	1.0	0.64	?	-10.0	i
O=C(COc1ccc(S(=O)(=O)Nc2ccccc2)cc1)NCc1ccccn1	·	2.6	-1.0	0.72	0.9	-1.5	i
Cc1ccc2c(C)nc(N/C(N)=N/S(=O)(=O)c3ccccc3)nc2c1	·	-21	-1.9	0.72	4.2	-3.2	i
CC(=O)c1ccc(NC(=S)NCCc2ccc(S(N)(=O)=O)cc2)cc1	?	·	2.8	·	4.8	-0.1	i
O=C(O)c1sccc1SCc1ccc(Cl)c(Cl)c1	-3%	3.2	0.5	0.71	5.6	·	·
C=CCN(CC=C)Cc1cc(=O)oc2cc(C)c(C)cc12	·	·	1.4	·	·	-0.6	i
COc1ccccc1/C=C/C=N/n1c(-c2ccc(F)cc2)n[nH]c1=S	-2%	·	0.6	·	-1.0	-2.5	i
CC1Cc2ccccc2N1S(=O)(=O)c1c(N)n(C)c(=O)n(C)c1=O (stereo unspecified)	4%	1.4	0.8	0.72	1.4	-0.7	i
CC1CCC(N(C)C(=O)CN2C(=O)NC(c3ccccc3)(c3ccccc3)C2=O)CC1 (stereo unspecified)	·	·	-5.1	·	·	1.9	i
Cc1cc(NC(=O)CSc2nnc(-c3ccco3)o2)no1	0%	3.0	1.7	0.73	5.3	·	·
CCOc1cc(C#N)ccc1OCC(=O)N1CCN(C(=O)c2cccs2)CC1	-2%	4.3	0.2	0.67	·	-0.2	i
CCC(C(=O)Nc1ccccc1)c1ccccc1 (stereo unspecified)	·	4.7	-1.2	0.7	4.9	·	·
CCOC(=O)C1CCCN(S(=O)(=O)c2ccc(S(=O)(=O)N3CCCC3)cc2)C1 (stereo unspecified)	·	·	2.2	·	4.3	?	i
CCCCCc1c(O)c2ccccc2[nH]c1=O	2%	-9.1	2.0	0.64	-2.5	·	·
CCC(CC)NC(=O)c1cc(S(=O)(=O)N2CCCCC2)ccc1N1CCOCC1	7%	2.2	6.0	0.69	·	0.5	i
CCCCN(CC)C(=O)c1ccccc1Oc1ccccc1	4%	0.1	-1.4	0.69	-1.3	·	·
CCOc1ccc(NC(=O)C(CC(=O)O)Cc2ccccc2)cc1 (stereo unspecified)	2%	1.6	0.2	0.7	-0.3	-1.6	i
Cc1ccc(C)c(N(CC(=O)NC2CCCCC2)C(=O)CNC(=O)c2ccco2)c1	·	0.2	2.2	0.68	-1.6	8.4	i
O=C(COC(=O)C1=COCCO1)NC(=O)c1ccc(OC(F)F)cc1	-12%	-0.8	4.2	0.65	6.9	-5.3	i
CCCCn1c(=N)n(CC(=O)O)c2ccccc21	6%	3.5	-2.9	0.69	3.5	1.0	i
CC(C(N)=O)N1c2cccc3cccc(c23)S1(=O)=O (stereo unspecified)	9%	-67	1.4	0.72	-1.2	0.4	·
CC(C)Cc1nnc(NC(=O)CSc2nc(O)c(Cc3ccccc3)c(=O)[nH]2)s1	6%	9.3	-3.6	0.7	·	-3.1	i
COc1ccccc1CNC(=O)c1ccc(OCC2CCCO2)cc1 (stereo unspecified)	·	-1.6	-4.6	0.68	-0.2	·	·
O=S(=O)([N-]c1nc2ccccc2nc1-[n+]1ccccc1)c1ccc(Cl)cc1	20%	8.1	-1.2	0.71	8.0	·	·
O=C(Nc1cccc(S(=O)(=O)N2CCOCC2)c1)c1ccc(Cl)c([N+](=O)[O-])c1	·	0.4	-2.3	0.68	-1.0	-1.9	i
CCNC(=O)/C(=C/c1ccc2c(c1)OCO2)NC(=O)c1ccc(Br)cc1	5%	5.8	2.5	0.7	2.2	·	·
Other entries
SMILES	Vif A3G	UCH37 DUB inh	HNF4A DNA FP	E coli growth	RanGTP-Imp inh	MLL AF4-AF9 inh	FGF22 binding
Cc1ccc(CN2CCSc3ccc(C(=O)N4CCOCC4)cc32)cc1	·	-86	-0.1	0.7	1.2	·	·
CCNc1nc(NC(C)C)nc(Nn2cnnc2)n1	-5%	2.3	0.1	0.73	-5.1	·	·
CC[C@]12c3[nH]c4cc(CCC(=O)N(C)C)ccc4c3CCN1C(=O)[C@@H](CC(=O)NCCN1CCOCC1)C[C@@H]2C(=O)N1CCN(C(=O)c2ccco2)CC1	-4%	2.0	-1.1	0.69	·	-1.8	i
NC(=S)N/N=C/c1ccc(-c2cc(Cl)c(Cl)cc2Cl)o1	?	·	27	·	1.4	1.0	i

Screening data: PubChem BioAssay, several laboratories
